eIF4H inh: human eIF4H binding inhibitors, primary screen, translation initiation inhibitor project, biochemical, uHTS, fluorescence polarization; Eukaryotic translation initiation factor 4H (Homo sapiens), Q15056; eIF4H fluorescence polarization binding assay; inhibition, % at 35 µM; actives 0.94% (n = 290,000); AID 2012, 2009;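 active = 50% or more with normal probe brightness, or confirmed in later tests; inconclusive = above 50% with abnormal brightness, or retests that disagree; inactive = below 50% or failed in later tests; about a fifth of its hits are not listed in these tables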;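 note: calls also rest on retests at 20 µM and on dose response follow-up; 0% = protein and probe with vehicle and 100% = probe without protein; strong numbers were not always called active; many hits fall short of the cut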
UUG fidelity: modulators of yeast start codon fidelity, primary screen, whole organism, S. cerevisiae, single point, plate reader; S. cerevisiae UUG-firefly luciferase reporter, luminescence/redox ratio; activity score, % at 18.7 µM; actives 0.13% (n = 350,000);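 active = replicate mean at a twofold rise or more, about +100% in these data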;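 note: firefly luciferase made from a UUG start codon reports start codon fidelity; reporter light over untreated wells divided by growth signal over untreated wells; some hits fall short of that in this replicate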
PABP polyA inh: PABP poly(A) RNA binding inhibitors, primary screen, biochemical, fluorescence polarization, uHTS; inhibition, % at 35 µM; actives 1% (n = 290,000); AID 2014, 2009;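 active = 50% or more with normal probe brightness, or confirmed in later tests; inconclusive = above 50% with abnormal brightness, or retests that disagree; inactive = below 50% or failed in later tests; about a fifth of its hits are not listed in these tables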;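 note: calls also rest on retests at 20 µM and on dose response follow-up; controls were probe without protein and protein plus probe with vehicle; some compounds called inactive have numbers as strong as hits; many hits fall short of the cut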
HIV Env fusion: inhibitors of HIV-1 Env-driven cell-cell fusion, primary screen, HeLa-JRFL effector, CEM21 target cells, luciferase; inhibition, % at 12.3 µM; actives 1.1% (n = 360,000); AID 651610, 2012;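 active = mean replicate inhibition score of at least 50 and every replicate individually at or above 50; inconclusive = only one of the two criteria met; inactive = mean below 50 and not all replicates reaching 50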;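 note: 0% = plate neutral controls and 100% = maraviroc near 300 nM; one replicate is shown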
MT1-MMP act inh: blockers of MT1-MMP proenzyme processing, primary screen, HT1080 RFP-PRO-GFP cells, GFP/RFP fluorescence | Matrix metalloproteinase-14 (Homo sapiens), P50281 | GFP/RFP ratio fluorescence, overnight; percent of plate control window, DMSO zero | GFP/RFP ratio change, % at 20 µM | actives 0.061% (n = 360,000) | AID 651647, 2012;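 active = GFP/RFP ratio change of at least 30% with cell ATP level not reduced by more than half and red fluorescence within 50% of control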; note: strong numbers were not always called active
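Assay system – RFP-PRO-GFP reporter HT1080 cells · Compound dosing – single dose of 20 µM compound, 1% DMSO final · Incubation – overnight compound exposure at 37 °C · Measure – GFP/RFP fluorescence ratio · Benchmarks – DMSO wells and RFP-L50D-GFP cells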
Rce1 inhib: yeast Rce1p protease inhibitors, primary screen, biochemical, fluorescence, cell-free homogeneous; CAAX prenyl protease 2 (Saccharomyces cerevisiae (strain ATCC 204508 / S288c)), Q03530; yeast membranes, quenched prenylated peptide cleavage fluorescence; calls only; actives 0.27% (n = 290,000); AID 2563, 2010;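 active = fall in fluorescence gain of 50% or more versus controls, with final raw signal at or below 3038400; inconclusive = same 50% fall but final raw signal above 3038400; inactive = fall in fluorescence gain under 50%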;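 note: plate controls were neutral control wells for no effect and wells lacking membranes for full effect; tested at 10 µM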
Target sequence (Q03530 whole entry, looked up): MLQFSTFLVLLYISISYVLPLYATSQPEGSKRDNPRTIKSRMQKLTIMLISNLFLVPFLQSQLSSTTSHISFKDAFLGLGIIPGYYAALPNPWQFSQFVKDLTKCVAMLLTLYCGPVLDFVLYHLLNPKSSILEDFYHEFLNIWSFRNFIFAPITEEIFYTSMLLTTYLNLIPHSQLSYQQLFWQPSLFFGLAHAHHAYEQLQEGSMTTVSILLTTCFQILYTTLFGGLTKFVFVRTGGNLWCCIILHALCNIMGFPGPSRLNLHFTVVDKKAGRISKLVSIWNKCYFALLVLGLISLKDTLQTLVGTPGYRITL
CSC inhib: cancer stem cell viability inhibitors, primary screen, luminescence | cancer stem cell-like cells viability | inhibition, % at 7.5 µM | actives 1.1% (n = 300,000) | AID 2717, 2010;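 active = mean at 75% or more and at least half the replicates too; inconclusive = mean and replicates disagree; tested in HMLE shEcad cells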;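 note: 0% = median of negative and 100% = median of positive control wells; the first replicate is given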
MT1-MMP act inh RFP: recorded beside MT1-MMP act inh, whose call it bears; RFP signal change, %; measured here: RFP expression control read;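 0 = vehicle wells; hits needed this value within 50% of zero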
The depositor's hits bear a star; i = inactive; ? = inconclusive; · = no result given; + = active, no number.

structure	eIF4H inh	UUG fidelity	PABP polyA inh	HIV Env fusion	MT1-MMP act inh	MT1-MMP act inh RFP	Rce1 inhib	CSC inhib
O=C(NCC1CC1)c1ccc(Nc2nc3ccc(Br)cc3[nH]2)cc1	0	-5	-4	-5	7	-4	+	31
CC1CCCCN1C(=O)c1cccc(NC(=O)c2ccccc2)c1 (stereo unspecified)	-3	·	-5	-9	-1	-2	i	-7
Cn1cc(CN2CCC(C(=O)Nc3cccc(-c4cscn4)c3)CC2)cn1	-2	-13	-16	6	0	0	i	3
CCOC(=O)N1CCC(Nc2nc(OC)nc(OC)n2)CC1	-4	-4	-6	-34	-4	0	·	-5
CCN(CC(=O)Nc1c(F)cccc1F)C(=O)/C=C/c1ccc(Br)s1	·	-16	·	·	0	-1	i	-3
CN(C(=O)COC(=O)c1ccc2c(c1)OCO2)C1CCCCC1	·	-4	·	-33	-1	1	·	-3
OC(CNCc1ccccc1)Cn1ccc2ccccc21 (stereo unspecified)	5	-8	14	-4	1	3	i	1
CCN(CC(=O)Nc1ccccc1C(F)(F)F)C(=O)c1cc(-c2ccccc2)nn1-c1ccccc1	·	·	·	28	4	-7	i	·
O=C1c2ccccc2C(=O)N1CCCc1c[nH]c2ccccc12	-4	-1	-12	-82	0	1	i	-3
Cc1ccccc1C(=O)N1CCN(c2ccc(NC(=O)c3ccc4c(c3)OCCO4)cc2)CC1	-4	-2	9	47	-8	-31	i	13
COCc1nnc(NC(=O)c2ccc(S(=O)(=O)N(C)Cc3ccccc3)cc2)o1	9	-19	-3	9	-3	-4	i	20
CCSc1nnc(NC(=O)c2cnccn2)s1	8	·	5	·	·	·	i	-19
Cc1ccc(C(=O)NCC(=O)OCC(=O)NC2CCCC(C)C2C)s1 (stereo unspecified)	-18	-2	0	-5	4	7	i	20
COC(=O)CSc1nc2ccc(N)cc2s1	-3	-15	-6	-20	0	0	i	-5
CCN(c1ccccc1)S(=O)(=O)c1cccc(C(=O)NCC(c2ccc(F)cc2)N2CCOCC2)c1 (stereo unspecified)	·	4	·	4	-3	-6	·	·
O=[N+]([O-])c1cc(S(=O)(=O)N2CCOCC2)ccc1NS(=O)(=O)c1ccccc1	·	-26	·	-9	0	4	·	5
CC1(C)CC2(CCO1)CNC(=O)O2 (stereo unspecified)	1	-21	-2	-46	-1	3	i	-20
CC1(c2nnc(-c3ccc(F)cc3)o2)CC(c2cccnc2)=NO1 (stereo unspecified)	·	-6	·	3	3	1	i	-27
O=C(Nc1ccc(C(=O)Nc2ccccc2Cl)cc1)c1cccnc1	2	-10	0	-3	-9	-2	i	-7
O=C(NNC(=S)Nc1ccccc1Cl)c1ccccc1	1	-26	-7	-69	3	2	i	-1
O=C(CCCCn1c(=O)[nH]c2ccsc2c1=O)NCCc1ccccc1	-4	-7	-8	7	2	2	i	-8
COc1cc(OC)c(C2N(c3ccc(Cl)cc3)C(=O)C3CCCN32)cc1OC (stereo unspecified)	-13	-15	-10	-28	-2	-1	i	11
O=C(CCS(=O)(=O)c1ccccc1)N1CCN(c2cccc(C(F)(F)F)c2)CC1	-21	5	10	·	-4	-11	i	14
C=CCC[C@H](Cc1ccc(F)cc1)C(=O)OC[C@@H](NC(=O)[C@@H](CC=C)CC(=O)N(CCO)Cc1ccccc1)C(C)(C)C	·	4	·	72*	-14	-21	·	51
CCOc1ccc(C(=O)NC2CCN(C(=O)Nc3ccc(F)cc3)CC2)cc1	-3	-1	0	0	4	-3	i	-6
Cc1occc1C(=O)NNS(=O)(=O)c1ccc([N+](=O)[O-])cc1	-7	-8	16	-1	4	1	i	·
CCN1C[C@@H]2[C@@H]3C(=O)N(C)C(=O)[C@@H]3[C@](C)(C1=O)N2C(=O)c1ccc(C(F)(F)F)cc1	·	-11	·	22	0	5	·	·
O=C(NCc1ccc2c(c1)OCO2)C1CCCN1S(=O)(=O)c1ccc(F)cc1 (stereo unspecified)	9	-7	-7	7	1	4	i	-20
COC(=O)CNC(=O)CSc1nnc(C)c(=O)[nH]1	0	2	6	-8	4	7	i	-8
Cc1cccc(Nc2nc(C)nc3c2oc2ccccc23)c1	-16	-13	7	17	-4	-4	i	5
CC(=O)c1cccc(-c2ccnc3c2CC(C(=O)Nc2cccc(NS(C)(=O)=O)c2)O3)c1 (stereo unspecified)	·	13	·	10	-3	0	·	·
NS(=O)(=O)c1ccc(NC(=S)NC(=O)c2ccc3c(c2)OCO3)cc1	-2	-11	-3	-4	-1	3	i	-4
Cc1cc(Nc2ccc(C)c(C)c2)c2ccccc2n1	-2	3	0	36	5	-3	i	14
CC1(C(=O)NS(=O)(=O)c2ccc3c(c2)CCO3)CCN1C(=O)COc1ccc(Cl)cc1 (stereo unspecified)	·	2	·	10	0	2	·	·
COc1ccc2cc3cc(C(=O)N4CCN(c5ccccn5)CC4)oc3nc2c1	-16	-17	-2	4	-3	2	i	3
CCNC(=O)N1CCC(n2nccc2NC(=O)CCCc2ccccc2)CC1	1	2	2	1	0	1	i	-12
CN1CCN(S(=O)(=O)c2ccc(NC(=O)COc3ccccc3)cc2)CC1	0	·	-10	1	4	4	i	10
Cc1ccc(N2C(=O)NC(NS(=O)(=O)c3ccc(C)cc3)(C(F)(F)F)C2=O)cc1 (stereo unspecified)	4	-9	8	-55	2	3	i	·
CCCC(=O)NC(c1ccccc1)c1ccc2cccnc2c1O (stereo unspecified)	1	-4	-9	-9	9	-6	·	108*
COC(=O)C1CCN(C(c2ccc(OC)c(OC)c2)c2sc3nc(C)nn3c2O)CC1 (stereo unspecified)	-6	-8	-6	-16	4	2	i	-2
O=C(/C=C/c1ccccc1)Nc1cccc(C(=O)NCCCCc2ccccc2)c1	·	-17	·	-32	-3	-11	·	·
O=C(/C=N/O)Nc1ccccc1	4	·	-1	·	0	6	i	-11
Cc1ccc(C(=O)N/C(=C\c2ccccc2)C(=O)NCc2cccnc2)cc1	-2	·	-12	13	-1	-4	i	-20
Cc1ccc(C)c(N2N=C(C(=O)Nc3ccc(S(=O)(=O)N4CCCC4)cc3)CCC2=O)c1	-8	8	-2	2	6	3	i	-8
Cc1ccc(C)c(NC(=O)CCc2ccc(S(=O)(=O)NC3CCCCC3)cc2)c1	-2	-13	-4	·	5	-9	i	-8
CCC1CCCCN1S(=O)(=O)c1ccc(NC(=O)c2cccnc2)cc1 (stereo unspecified)	9	-7	5	6	3	-1	i	3
O=C1c2[nH]nc(-c3ccccc3O)c2C(c2ccc(F)cc2)N1Cc1ccco1 (stereo unspecified)	2	-11	2	-99	-4	-4	i	4
CCN1CCN(Cc2nc3cc(NC(=O)COc4ccc([N+](=O)[O-])cc4)ccc3n2C)CC1	-8	-13	-4	-4	-1	-1	i	·
CCOc1ccccc1N1CCN(C(=O)Cc2ccc(S(=O)(=O)N3CCOCC3)s2)CC1	·	-4	·	-32	-6	-4	i	-11
COc1ccccc1NC(=O)Cn1c(CCC(=O)O)ccc1-c1ccccc1	9	-12	-10	-5	-4	1	i	-10

The list goes on.
structure	eIF4H inh	UUG fidelity	PABP polyA inh	HIV Env fusion	MT1-MMP act inh	MT1-MMP act inh RFP	Rce1 inhib	CSC inhib
COCCSc1nnc(-c2cnccn2)o1	-5	-45	-3	-32	3	3	i	-11
CCCN(c1ccccc1F)S(=O)(=O)c1c[nH]c(C(=O)OC)c1	-6	-5	4	-2	3	2	i	1
CCOc1ccccc1N(CC(=O)N1CCC(C)CC1)S(=O)(=O)c1ccc(C)cc1	50	1	-4	·	-7	-12	i	·
C=C(C)CNC(=O)c1ccc(OC2CCN(C(=O)COC)CC2)cc1	·	4	·	-2	-1	-3	i	12
COc1cccc(C(=O)NCC(=O)OC(C)C(=O)NC23CC4CC(CC(C4)C2)C3)c1 (stereo unspecified)	·	·	·	-1	1	6	·	-13
COc1ccccc1/C=C/C=N/NC(=O)c1cc(-c2ccco2)[nH]n1	42	-24	19	13	3	0	i	-8
CC1CCN(S(=O)(=O)c2ccc3c(c2)CCN3C(=O)C2CCC2)CC1	-7	-17	2	-3	6	-7	i	10
Cc1cccc2cccnc12	·	-4	·	·	-2	4	·	-6
Cc1c(CCC(=O)NCCCCCC(=O)O)c(=O)oc2c(C)c3oc4c(c3cc12)CCCC4	-9	-8	10	7	-2	-4	i	-5
COc1ccc(NC(=O)NNC(=O)COc2ccc([N+](=O)[O-])c(C)c2)cc1OC	7	-1	-1	14	-1	0	i	-16
CSc1cccc(CN2CCCC(C(=O)Nc3cccc(-n4cccn4)c3)C2)c1 (stereo unspecified)	2	1	7	-4	1	-2	i	10
Cc1ccc(C23CC4CC(CC(C(=O)N(C)C)(C4)C2)C3)cc1	1	2	-8	-2	3	-4	i	-3
CCOC(=O)c1cc2cc([N+](=O)[O-])cc(OC)c2oc1=O	-2	·	9	15	6	1	i	2
O=C(/C(=C/c1ccccc1Cl)c1ccccc1)N1CCOCC1	-13	3	-2	13	-1	-1	i	-6
CCOc1ccc(S(=O)(=O)N(C)c2ccc(OCC(=O)Nc3nc4ccccc4s3)cc2)cc1	3	·	-13	34	-2	-26	i	9
CC1CCCC(NC(=O)CN2CCN(Cc3ccc(Cl)cc3)C2=O)C1C (stereo unspecified)	-1	-5	-10	·	-3	-7	i	0
O=C(c1ccccc1)N(CCO)Cc1cc2cc3c(cc2[nH]c1=O)OCCO3	-7	·	?	-2	-5	4	i	-7
O=C(C1CCCO1)N1CCN(C(=S)Nc2ccc(Cl)cc2Cl)CC1 (stereo unspecified)	-4	·	9	19	3	-1	i	-13
CCn1c(SCC(=O)N2CCCc3ccccc32)nc2cccnc21	12	-12	8	-44	-5	-1	i	7
Cc1sc2ncnc(NCC3(N4CCOCC4)CCCCC3)c2c1C	-1	0	3	·	-2	-3	i	45
CCCc1nnc(NC(=O)CCC(=O)Nc2ccc(F)cc2)s1	-3	-12	-6	·	-5	3	i	-6
CC(=O)Nc1ccc(NC(=O)Nc2cc(C)cc(C)c2)cc1	1	-9	9	-7	-1	0	i	-4
CCOC(=O)N1CCC(NC(=O)c2ccc3c(c2)N(Cc2ccc(F)cc2)CCS3)CC1	11	-6	-10	38	-1	-19	i	3
CC(=O)c1ccc(OC(=O)N(c2ccccc2)c2ccccc2)cc1	-9	·	1	·	0	6	i	-7
CC1=CC(C)(C)Nc2ccc(C)cc21	33	-9	48	-41	2	3	i	-12
CC(C)(C)c1ccc(NC(=O)C2=CN3CCS(=O)(=O)N=C3C=C2)cc1	·	-13	·	-24	5	4	·	-3
CCOc1ccccc1N(CC)C(=O)c1nn(C)c2c1CSc1ccccc1-2	-1	-8	-7	6	0	-1	i	10
Cc1c(-c2ccccc2)c(=O)oc2cc(O)ccc12	-6	·	-11	-3	0	0	i	-11

Source: PubChem BioAssay (several laboratories)
